T cruzi inh – T. cruzi replication inhibition. T. cruzi beta-gal in NIH3T3, luminescence, 90 h. inhibition, % (concentration not given with the values). 300,000 tested, 1.4% active. AID 1885;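 active = mean inhibition across valid replicates above about 55%, limit read from the data; inconclusive = mean below that limit but half or more replicates reach it; inactive = mean below it, under half of replicates reach it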;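 note: signal also drops with host cell toxicity which is not excluded here; 0% = plate median of DMSO wells and 100% = zero luminescence signal; higher percent means less beta-gal luminescence so fewer parasites; stock transfer was 50 nL into about 50 µL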
AF4-AF9 inh – MLL-AF4/AF9 protein interaction inhibition; inhibition, % at 10 µM; 350,000 tested, 0.47% active; AID 651704; AlphaScreen, biotin-AF4 peptide binding to FLAG-AF9; P42568;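 active = every replicate reaching a set inhibition limit, whatever the replicate mean, cut at about 25% in these data; inconclusive = mean inhibition reaches that limit but some replicates miss it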;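 note: 0% = plate neutral control median and 100% = total signal loss; the record names both 10 and 1 µM as test concentration; the first replicate is given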
Target sequence (P42568 whole entry, looked up): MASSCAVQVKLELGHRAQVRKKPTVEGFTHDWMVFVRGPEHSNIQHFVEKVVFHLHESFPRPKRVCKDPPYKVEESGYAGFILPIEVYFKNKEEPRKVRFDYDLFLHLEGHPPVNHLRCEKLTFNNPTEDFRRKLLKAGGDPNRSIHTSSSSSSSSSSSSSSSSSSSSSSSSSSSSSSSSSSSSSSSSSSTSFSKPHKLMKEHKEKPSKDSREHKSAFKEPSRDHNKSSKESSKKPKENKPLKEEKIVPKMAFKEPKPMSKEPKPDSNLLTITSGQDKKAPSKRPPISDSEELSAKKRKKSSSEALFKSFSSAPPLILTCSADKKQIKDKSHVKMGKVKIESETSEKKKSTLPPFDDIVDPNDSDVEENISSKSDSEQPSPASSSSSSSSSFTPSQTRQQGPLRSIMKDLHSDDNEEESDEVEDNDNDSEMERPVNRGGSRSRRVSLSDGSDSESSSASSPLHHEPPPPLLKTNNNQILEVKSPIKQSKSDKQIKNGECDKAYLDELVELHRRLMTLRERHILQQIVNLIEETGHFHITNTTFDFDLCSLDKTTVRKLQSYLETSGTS
A1 inh – inhibitors of the anti-apoptotic protein A1, read as caspase activation | MEF A1-2A-BIM cells, Caspase-Glo 3/7 luminescence, 3 h; percent of clofoctol response, vehicle zero | caspase activation, % (concentration not given with the values) | 330,000 tested, 0.066% active;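 active = over half of replicate activation scores above 10%, or exactly half above 10 with the replicate mean above 10; inconclusive = replicate mean below 10 yet half the replicates above 10; inactive = over half of replicates below 10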;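 note: wells of about 30 µL received 50 nL stock; many hits fall short of the cut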
UCH37 DUB inh – inhibitors of human deubiquitinating enzyme UCH37; Q9Y5K5; 330,000 tested, 0.33% active; purified proteasome/UCH37, Ub-AMC cleavage fluorescence; inhibition, % (concentration not given with the values); AID 588478;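 active = mean of two replicates above 20%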;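 note: 0% = compound-free wells with enzyme and 100% = wells lacking proteasome; stock transfer was 100 nL into about 20 µL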
Target sequence (Q9Y5K5 whole entry, looked up): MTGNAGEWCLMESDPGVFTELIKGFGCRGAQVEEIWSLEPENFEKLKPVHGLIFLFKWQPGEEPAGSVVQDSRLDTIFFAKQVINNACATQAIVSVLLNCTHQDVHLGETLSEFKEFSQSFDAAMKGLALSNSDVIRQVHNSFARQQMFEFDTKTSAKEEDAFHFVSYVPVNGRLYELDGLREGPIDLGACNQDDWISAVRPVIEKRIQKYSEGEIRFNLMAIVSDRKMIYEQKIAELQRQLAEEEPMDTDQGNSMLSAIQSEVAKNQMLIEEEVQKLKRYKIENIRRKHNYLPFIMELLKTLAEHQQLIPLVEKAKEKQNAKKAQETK
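Assay system: Proteasome-bound UCH37. Buffer or medium: pH 7.4 Tris-HCl (50 mM) with ovalbumin, ATP-MgCl2, DTT. Incubation: 30 min preincubation with enzyme, 25 min cleavage at room temperature. Measured by: fluorescence, ex 355 nm, em 460 nm. Read-out basis: percent inhibition. Control set: wells without proteasome as full block, compound-free enzyme plus substrate as uninhibited.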
Ecoli growth – E. coli growth inhibition; Escherichia coli growth, OD600, 23 h; active compounds read low; OD600 absorbance (no concentration beside the values); 330,000 tested, 0.21% active; AID 1053175;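 active = OD600 absorbance below the run mean of sample wells minus 3.6 SD, in any replicate, cut at about 0.56 in these data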;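 note: stock transfer was 300 nL into about 60 µL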
Beta apoptosis – blocks beta cell apoptosis | protection from apoptosis, % (test concentration not listed) | INS-1E cytokine-induced death, ATP luminescence, 48 h; percent of positive-control rescue, neutral wells zero | 300,000 tested, 0.8% active;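 active = all replicates at 75% or more, or half of them and the mean; inconclusive = half reach 75% but not the mean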;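 note: 0% = cytokine-treated negative control wells and 100% = positive control rescue; higher means more ATP so stronger rescue from cytokine killing; wells of about 40 µL received 100 nL stock; the first replicate is given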
Ecoli rRNA inh – inhibits bacterial ribosomal RNA function over humanized ribosomes; E. coli WT GFP vs humanized-ribosome RFP mutants, fluorescence, 24 h; active compounds read low; DMSO median 0, no signal -100; GFP signal change (wild-type ribosome), % (no concentration beside the values); 350,000 tested, 1.6% active; AID 720706;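 active = significant combined selectivity score with lowered wild-type GFP, culture density cut under 30%, mutant RFP and density less affected; inactive = any of these conditions unmet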; note: one replicate is shown; some compounds called inactive have numbers as strong as hits
FGF22 binding – shifts melting point of recombinant human FGF22. Q9HCT0. recombinant FGF22 thermal shift, SYPRO orange fluorescence; percent of sucrose octasulfate shift, DMSO zero. calls only at 9.99 µM. 340,000 tested, 1.5% active;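 active = melting point raised past a set limit in the mean and every replicate; inconclusive = no clear call; three in four hits are not shown here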
Target sequence (Q9HCT0 whole entry, looked up): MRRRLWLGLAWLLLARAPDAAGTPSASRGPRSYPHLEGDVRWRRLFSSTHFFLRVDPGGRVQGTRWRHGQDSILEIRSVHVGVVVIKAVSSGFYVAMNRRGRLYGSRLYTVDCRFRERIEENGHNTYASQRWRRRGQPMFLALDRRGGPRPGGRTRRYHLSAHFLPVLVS
Ecoli rRNA inh OD600 – recorded beside Ecoli rRNA inh, whose call it bears; OD600 change, %; measured here: OD600 growth;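 optical density of the mix in the first replicate; 0 = DMSO median and -100 = no signal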
Ecoli rRNA inh RFP – further read-out of Ecoli rRNA inh, marked with its call; RFP signal change, %; measured here: RFP humanized mutant strains;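 first replicate; 0 = DMSO median and -100 = no signal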
An asterisk follows results filed as active; i = inactive; ? = inconclusive; / = not tested or not shown.

SMILES | T cruzi inh | AF4-AF9 inh | A1 inh | UCH37 DUB inh | Ecoli growth | Beta apoptosis | Ecoli rRNA inh | Ecoli rRNA inh OD600 | Ecoli rRNA inh RFP | FGF22 binding
O=C(Nc1ccccc1F)C1CCCN(S(=O)(=O)c2cccc3cccnc23)C1 (centres undefined) | -4.5 | -0.5 | -0.6 | 0.3 | 0.756 | -6.6 | -3.9 | -4.1 | 1.6 | i
O=C(CSC(=S)N1CCCCC1)N1N=CCC1c1ccccc1 (centres undefined) | 6.9 | / | 0.0 | 4.9 | 0.669 | / | / | / | / | /
Cc1nc(SCC(=O)Nc2nnc(C(C)C)s2)n[nH]1 | -11.2 | -0.7 | 0.1 | -1.5 | 0.641 | -7.1 | 1.8 | 7.8 | -3.7 | i
CCOC(=O)[C@@H]1[C@H]2COc3cc(OC)ccc3[C@H]2N2C(=O)N(c3ccc(F)cc3)C(=O)[C@]12C | 15.8 | / | 0.5 | 2.2 | / | -2.6 | / | / | / | /
CCOC(=O)C1=C(C)NC(C)=C(C(=O)OCC)C1C(=O)O | 2.3 | / | -0.1 | 6.1 | 0.676 | 3.1 | / | / | / | /
CCN(c1ccc(C(=O)CSc2nnc(C3CC3)n2C2CC2)cc1)S(C)(=O)=O | / | 3.4 | -0.2 | 3.3 | 0.679 | -5.6 | 14.4 | 7.9 | 1.5 | i
O=C(CSc1nc2ccccc2n1CC(=O)NCc1ccccc1)NCc1ccco1 | -16.0 | / | -0.5 | -0.1 | 0.729 | 1.2 | / | / | / | /
CN(Cc1c(F)cccc1Cl)C(=O)CNC(=O)c1cccs1 | -9.0 | -2.1 | -0.2 | -0.6 | 0.668 | 0.3 | -21.3 | -23.0 | -3.4 | i
O=C(Nc1ccc(OC(F)(F)F)cc1)c1ccc2nccnc2c1 | -6.7 | 0.5 | -1.0 | / | / | 40.2 | -5.7 | -7.0 | -0.4 | /
CC(=O)Nc1ccc2oc(-c3ccccc3)nc2c1 | 9.2 | -1.6 | -7.2 | -108.6 | 0.653 | 4.2 | -29.4 | -31.1 | -7.5 | i
N#Cc1ccc(OCC(=O)Nc2ccccc2NS(=O)(=O)c2cccs2)cc1 | -18.0 | / | 2.1 | 2.4 | 0.619 | -3.0 | / | / | / | /
Oc1c(N=NC(=S)Nc2ccccc2F)c2ccccc2n1Cc1ccc(F)cc1 | 66.5* | 8.5 | -0.1 | 11.3 | 0.732 | 39.6 | -0.1 | 12.9 | 0.1 | i
Cc1cc(C)cc(NC(=S)N2CCC(c3nc4ccccc4s3)CC2)c1 | 51.0 | 7.9 | 0.3 | 1.6 | 0.721 | / | -10.2 | 8.9 | -1.0 | i
O=C(Nc1cccc(S(=O)(=O)Nc2ccc(Cl)cc2)c1)c1ccccn1 | / | 1.8 | -0.1 | 4.5 | 0.704 | -2.8 | / | / | / | i
CCOC(=O)COc1ccc(/C=C2/SC(=Nc3ccccc3)N(Cc3cccnc3)C2=O)cc1OC | -3.7 | / | 1.3 | -2.4 | 0.795 | -0.8 | / | / | / | /
CC(=O)N/C(=N/c1nc(C)cc(C)n1)Nc1ccc(C)cc1C | 26.3 | -4.3 | -0.3 | 5.1 | 0.66 | 4.9 | 4.2 | 0.5 | 13.6 | i
O=C(Nc1cccc(F)c1)c1cccc2c1C(=O)N(C1CCCCC1)C2 | -16.6 | -15.5 | -0.7 | 1.3 | 0.703 | -12.1 | 4.0 | -7.9 | -0.5 | i
O=C1SC(SCc2ccccc2Cl)=N/C1=C\c1ccc(C(=O)O)cc1 | -31.6 | -2.2 | -0.1 | 5.1 | 0.706 | / | 9.3 | -1.0 | 0.3 | /
COc1ccc([N+](=O)[O-])c(S(=O)(=O)c2ccc(Cl)cc2)n1 | 0.9 | -2.2 | 0.2 | 7.3 | 0.616 | 82.8* | 8.0 | -5.7 | 1.9 | i
CC(C)(C)n1cnnc1Sc1ccc([N+](=O)[O-])cn1 | -5.3 | 3.6 | 0.2 | 5.1 | 0.638 | -10.8 | 13.8 | -1.5 | 3.5 | i
O=C(COC(=O)c1cccs1)Nc1ccccc1Cl | -5.3 | -2.0 | -0.1 | 4.0 | 0.674 | 3.7 | 2.8 | 0.1 | -0.3 | i
O=C(NNC(=O)C(c1ccccc1)c1ccccc1)c1ccccn1 | 44.3 | 4.1 | -0.1 | 0.3 | 0.654 | 70.2 | -28.8 | -41.5 | -14.1 | i
COc1ccc(-n2nc3c(c2NC(C)=O)CS(=O)(=O)C3)cc1 | 2.5 | -0.5 | 1.4 | -0.4 | 0.627 | -4.1 | 0.5 | 0.1 | -1.6 | i
COc1ccccc1-n1c(SCc2cc(=O)oc3cc(O)ccc23)nc2ccccc2c1=O | -4.4 | 8.0 | -0.4 | -37.1 | 0.673 | 0.2 | -22.4 | -38.9 | -11.7 | i
Cc1cccc(OCCC(=O)OCc2csc(CC(=O)Nc3ccccc3C)n2)c1 | / | 5.3 | ? | 3.9 | 0.688 | 1.4 | 7.0 | 3.1 | 1.5 | i
Cc1ccc(C(=O)CSc2nc(N)cc(=O)[nH]2)cc1C | -3.4 | -4.0 | 0.9 | 3.7 | 0.691 | / | 9.1 | 6.7 | 4.2 | i
CC1CC(C)(C)NC(=S)N1CCCC(=O)Nc1ccc(F)cc1 (centres undefined) | -7.9 | -3.1 | 0.1 | 2.2 | 0.636 | -0.4 | 4.1 | -8.1 | 1.8 | i
COc1ccc(NCC(O)Cn2c(C)c(C)c3ccccc32)cc1 (centres undefined) | 4.1 | 20.8 | 0.2 | 6.0 | 0.707 | 6.6 | -40.0* | -30.0* | -8.7* | /
O=c1[nH]c(=O)n(-c2ccccc2)c2c1C(C(F)(F)F)(C(F)(F)F)N=C(C1CCCCC1)N2 | 4.3 | / | 0.7 | 3.8 | / | 2.0 | / | / | / | /
CCOC(=O)N1CCN(C(=O)CCNS(=O)(=O)c2ccccc2)CC1 | -6.3 | -0.3 | 0.8 | 1.7 | 0.658 | -4.2 | 2.8 | 13.2 | -2.2 | i
CCC(CC)NC(=O)CN1CCN(S(=O)(=O)c2ccc(Br)s2)CC1 | / | -10.0 | / | 2.1 | 0.668 | / | 3.2 | 7.7 | -3.5 | i
CN1C(=O)C(C)(C)c2cc(S(=O)(=O)N3CCCC(C(=O)NCc4ccccc4Cl)C3)ccc21 (centres undefined) | -6.9 | -2.9 | 0.3 | 6.5 | 0.705 | 8.2 | -3.4 | -0.9 | -4.4 | i
CCCC[C@@H]1C=C(C(=O)O)[C@H](c2ccc(Cl)c(Cl)c2)N1S(=O)(=O)c1ccc(C)cc1 | / | -1.4 | 1.0 | 3.5 | 0.669 | -3.6 | -42.5 | -74.3 | -8.2 | i
CCOc1ccc(NC(=O)CSc2nccn2C)cc1 | -1.5 | / | -1.4 | 3.4 | 0.665 | 0.6 | / | / | / | /
Brc1ccccc1-c1nnc(CSc2nnc3sc4ccccc4n23)o1 | 0.0 | / | 0.0 | 2.7 | 0.663 | -1.0 | / | / | / | /
COC(=O)C1=C(C(=O)OC)[C@@H]2N(C)c3ccc(OC)cc3[C@@]23C[C@@H](C(=O)OC)N(C(=O)c2ccc(Br)cc2)C3=N1 | -2.8 | 12.0 | 2.0 | 0.6 | / | -5.7 | 0.4 | 4.8 | 0.6 | i
CC(=O)C1=C(O)C(=O)N(Cc2ccco2)C1c1ccccc1F (centres undefined) | -11.8 | -5.0 | -0.2 | 8.7 | 0.671 | -2.3 | 19.3 | 12.9 | 5.1 | /
COc1cccc(-c2c(-c3cc(OC)cc(OC)c3)n(C)c3ccc(Br)cc23)c1 | / | 0.3 | 1.2 | -3.1 | 0.76 | -2.6 | 7.4 | 3.1 | 5.5 | i
CN(C)S(=O)(=O)c1ccc(SCC(=O)N2CC(=O)Nc3ccccc32)nc1 | / | -13.8 | 0.7 | 1.8 | 0.701 | -1.9 | 1.3 | 6.1 | 0.3 | i
COc1ccc(/C=C2\SC(c3ccc(C)cc3)=NC2=O)cc1OC | 5.9 | / | 0.4 | -5.0 | 0.689 | 4.4 | / | / | / | /
CN(CCCC1CCCC1)C(=O)CC1C(=O)NCCN1Cc1cccc(F)c1F (centres undefined) | 16.8 | 1.0 | -0.7 | -1.2 | 0.672 | -2.7 | -8.8 | -41.6 | 11.2 | i
COc1ccc(-c2c(C#N)c(N)nc(Sc3ccc(Cl)cc3)c2C#N)cc1 | 8.2 | -1.4 | 3.4 | / | / | 36.1 | 21.7 | 12.1 | 1.2 | i
O=C(Cc1n[nH]c(=O)c2ccccc12)N1CCN(S(=O)(=O)c2ccc(F)c(Cl)c2)CC1 | / | -1.6 | 0.7 | 0.2 | 0.694 | 3.0 | 9.3 | -1.1 | -0.1 | i
CCOC(=O)Nc1ccc2c(c1)N(C(=O)CN1CCN(C)CC1)c1ccccc1CC2 | -12.0 | 1.4 | 0.1 | -2.0 | 0.711 | -3.6 | 5.9 | 3.1 | -3.3 | i
O=S(=O)(Nc1ccc(Br)cc1)c1cccc2nonc12 | -1.4 | 1.3 | 0.5 | 2.3 | 0.674 | 5.5 | 3.2 | 1.6 | -1.3 | i
Cc1ccsc1CN(C)C(=O)CN1C(=O)NC(c2ccccc2)(c2ccccc2)C1=O | / | -2.4 | -0.7 | 4.7 | 0.703 | -8.2 | -12.1 | -18.9 | 3.2 | i
Cc1nn(C)c(C(=O)NNC(=S)NCc2ccco2)c1Cl | -13.4 | / | -0.3 | 0.8 | 0.698 | -6.7 | / | / | / | /
CC1(C)Cc2ccccc2C(=O)N1 | -0.3 | / | 0.0 | 25.7* | 0.713 | -4.1 | / | / | / | /
Cc1ccc(NC(=S)N2CCC(c3ccccc3)C2)c(Cl)c1 (centres undefined) | 7.8 | -4.0 | -2.9 | 3.2 | 0.675 | 3.1 | -27.6 | -34.8 | -20.1 | i
COCCSc1nnc(NC(=O)COC)s1 | -0.8 | / | -0.2 | 4.8 | 0.718 | -1.3 | / | / | / | /
Cc1c(Cl)c([N+](=O)[O-])nn1CC(=O)NCC1CCCO1 (centres undefined) | -7.9 | -7.1 | 0.4 | 2.5 | 0.644 | 1.9 | 5.7 | 4.6 | -4.4 | i
Nc1c2c(nc3ccc(Br)cc13)N(c1ccccc1)CC2 | / | / | 0.0 | -23.5 | 0.636 | 9.8 | / | / | / | /
c1ccc(CSc2nnc(-c3ccco3)n2Cc2ccco2)cc1 | 14.5 | / | -1.1 | 3.9 | 0.721 | -5.9 | / | / | / | /
O=S(=O)(c1ccccc1Cl)N1CCCC1c1nc(-c2ccccc2Cl)no1 (centres undefined) | -3.8 | / | 0.0 | 1.3 | 0.73 | 3.3 | / | / | / | /
CC(NC(=O)Cn1nc(C(=O)O)c2ccccc2c1=O)c1ccccc1 (centres undefined) | -2.8 | / | 0.5 | 0.6 | 0.758 | -2.0 | / | / | / | /

Screening data deposited in PubChem by several laboratories.

Only part of the results is shown, so the mix of outcomes need not match the whole.
